Source: PubChem BioAssay (Broad Institute)
rRNA inh HTS – reduced GFP signal of wild-type E. coli, primary screen, bacterial rRNA inhibitor project, GFP/RFP fluorescence, OD600, single point | GFP signal change (wild-type ribosome), % (concentration not given with the values) | AID 720706, 2013 | E. coli WT GFP vs humanized-ribosome RFP mutants, 24 h; hits give low values; DMSO median 0, no signal -100 | 350,000 tested, 1.6% active;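 active = significant combined selectivity score with lowered wild-type GFP, culture density cut under 30%, mutant RFP and density less affected; inactive = any of these conditions unmet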; note: one replicate is shown; some compounds called inactive have numbers as strong as hits
rRNA inh HTS OD600 – also measured in rRNA inh HTS; calls as there; OD600 change, %; measured here: OD600 growth;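 optical density of the mix in the first replicate; 0 = DMSO median and -100 = no signal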
rRNA inh HTS RFP – second read-out of rRNA inh HTS, no call of its own (marks repeat the call); RFP signal change, %; measured here: RFP humanized mutant strains;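 first replicate; 0 = DMSO median and -100 = no signal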
* marks the source's active call; other numbers are inactive results; & = joins results of further samples. These rows are one share of the data, so the mix of outcomes need not match the whole.

The first 9 compounds, to show the layout:
rRNA inh HTS	rRNA inh HTS OD600	rRNA inh HTS RFP	compound
-1	7	-0.3	CC1CCN(CCNC(=O)c2ccc3c(=O)n(CCc4ccccc4)c(=O)[nH]c3c2)CC1
0	-11	-1.7	COc1ccc(S(=O)(=O)Nc2ccc3c(c2)C(=O)N([C@H](C)CO)C[C@@H](C)[C@H](CN(C)Cc2ccc(C(F)(F)F)cc2)O3)cc1
5	6	-2.9	COCC(=O)N1[C@@H]2CN(C(=O)c3cccc(OC)c3)c3ccccc3[C@@H]2[C@@H]1CO
-15	-23	3.5	NC(c1csc(NC(=O)Nc2ccccc2)n1)C1CCCCC1 (stereo unspecified)
-1	4	-1.3	COc1ccc2c3c([nH]c2c1)[C@H](CO)N(C(=O)c1cccnc1)CC31CN(Cc2ccccc2)C1
2	6	-0.4	C[C@H](CO)N1C[C@H](C)[C@H](CN(C)C(=O)Nc2ccc(C(F)(F)F)cc2)Oc2ccc(NC(=O)Cn3cnnn3)cc2CC1=O
2	6	-1.9	C[C@@H]1CCCCO[C@H](CN(C)S(=O)(=O)c2cn(C)cn2)[C@@H](C)CN([C@@H](C)CO)C(=O)c2cc(NC(=O)CCC(F)(F)F)ccc2O1
-1	-12	-1.4	COc1ccc(CN(C)C[C@@H]2Oc3c(NC(=O)C4CCOCC4)cccc3C(=O)N([C@@H](C)CO)C[C@H]2C)cc1
2	11	3.0	Cc1noc(C)c1NC(=O)N(C)C[C@H]1Oc2ccc(NS(=O)(=O)c3ccc(F)cc3)cc2CC(=O)N([C@@H](C)CO)C[C@H]1C

Results, from the start:
rRNA inh HTS	rRNA inh HTS OD600	rRNA inh HTS RFP	compound
-1	7	-0.3	CC1CCN(CCNC(=O)c2ccc3c(=O)n(CCc4ccccc4)c(=O)[nH]c3c2)CC1
0	-11	-1.7	COc1ccc(S(=O)(=O)Nc2ccc3c(c2)C(=O)N([C@H](C)CO)C[C@@H](C)[C@H](CN(C)Cc2ccc(C(F)(F)F)cc2)O3)cc1
5	6	-2.9	COCC(=O)N1[C@@H]2CN(C(=O)c3cccc(OC)c3)c3ccccc3[C@@H]2[C@@H]1CO
-15	-23	3.5	NC(c1csc(NC(=O)Nc2ccccc2)n1)C1CCCCC1 (stereo unspecified)
-1	4	-1.3	COc1ccc2c3c([nH]c2c1)[C@H](CO)N(C(=O)c1cccnc1)CC31CN(Cc2ccccc2)C1
2	6	-0.4	C[C@H](CO)N1C[C@H](C)[C@H](CN(C)C(=O)Nc2ccc(C(F)(F)F)cc2)Oc2ccc(NC(=O)Cn3cnnn3)cc2CC1=O
2	6	-1.9	C[C@@H]1CCCCO[C@H](CN(C)S(=O)(=O)c2cn(C)cn2)[C@@H](C)CN([C@@H](C)CO)C(=O)c2cc(NC(=O)CCC(F)(F)F)ccc2O1
-1	-12	-1.4	COc1ccc(CN(C)C[C@@H]2Oc3c(NC(=O)C4CCOCC4)cccc3C(=O)N([C@@H](C)CO)C[C@H]2C)cc1
2	11	3.0	Cc1noc(C)c1NC(=O)N(C)C[C@H]1Oc2ccc(NS(=O)(=O)c3ccc(F)cc3)cc2CC(=O)N([C@@H](C)CO)C[C@H]1C
7	-30	11	CCCC#Cc1ccc([C@@H]2[C@H]3CN(S(=O)(=O)CC)CCCCN3[C@H]2CO)cc1
3	6	-1.7	CC(C)NC(=O)Nc1ccc2c(c1)CC(=O)N([C@H](C)CO)C[C@@H](C)[C@@H](CN(C)C(=O)NC(C)C)O2
2	3	-2.1	O=C(NCC1CCCCC1)[C@@H]1[C@@H](CO)[C@@H]2Cn3c(cccc3=O)[C@@H]2N1C(=O)CC1CC1
0	0	-1.5	C[C@H]1CN([C@@H](C)CO)C(=O)c2cc(NS(C)(=O)=O)ccc2O[C@@H]1CN(C)CC1CCCCC1
1	4	-0.4	CC(C)NC(=O)Nc1ccc2c(c1)C(=O)N([C@H](C)CO)C[C@@H](C)[C@H](CN(C)Cc1ccncc1)OCCCC[C@H](C)O2
4	1	-1.4	COc1cccc(S(=O)(=O)N(C)C[C@@H]2Oc3ncc(C#CC(C)C)cc3C(=O)N([C@@H](C)CO)C[C@@H]2C)c1
0	-3	-0.6	CN(C)CCCNC(=O)C[C@H]1CC[C@@H]2[C@H](COC[C@@H](O)CN2C(=O)c2ccncc2)O1
2	10	0.0	COCCNC(=O)C[C@H]1C[C@@H]2c3cc(NS(=O)(=O)c4ccccc4)ccc3O[C@@H]2[C@@H](CO)O1
-4	12	-2.6	C[C@H](NC(=O)C[C@@H]1CC[C@@H]2[C@H](COc3ccc(NS(=O)(=O)c4ccc(Cl)cc4)cc3C(=O)N2C)O1)c1ccccc1
0	4	-3.6	CCOC(=O)N1CCN(C(=O)C[C@H]2C[C@@]3(C(=O)OC)C(=C[C@H](C(C)(C)C)O[C@@H]3C)N(Cc3ccccc3)C2=O)CC1
0	-6	-1.4	COCC(=O)Nc1ccc2c(c1)[C@@H]1C[C@@H](CC(=O)N3CCN(C)CC3)O[C@H](CO)[C@@H]1O2
2	20	-1.4	CN(C)C(=O)C[C@H]1CC[C@H](NC(=O)Nc2cccc(F)c2)[C@@H](CO)O1
0	1	2.6	CCCC(=O)Nc1ccc2c(c1)C(=O)N(C)C[C@@H](OC)[C@@H](C)CN(C)[C@@H](C)CO2
-4	-1	-1.6	O=C(C[C@@H]1CC[C@H](NC(=O)CC2CC2)[C@H](CO)O1)NCc1ccc(-c2ccccc2)cc1
1	0	0.2	CN(C)CCCNC(=O)C[C@H]1CC[C@H]2[C@H](COc3ccc(NC(=O)c4ccccc4F)cc3C(=O)N2C)O1
-5	-2	-1.1	COc1ccc(-c2cnc3c(c2)C(=O)N([C@@H](C)CO)C[C@H](C)[C@@H](CN(C)C(=O)C2CCC2)O3)cc1
-38	-47	-7.9	Cc1ccc(-c2nc3ccc(C)cn3c2Cc2ccccc2C(F)(F)F)cc1
8	13	-0.7	COCCNC(=O)C1(C)CCN(C(=O)c2cccnc2Oc2ccccc2)C1 (stereo unspecified)
0	11	0.5	CO[C@H]1CN(C)C(=O)c2ccc(NC(=O)C3CC3)cc2OC[C@@H](C)N(Cc2nccs2)C[C@@H]1C
3	6	-0.6	O=C(CCN1CCCCC1)N[C@@H]1CC[C@H](CCn2cc(-c3ccc(F)cc3)nn2)O[C@H]1CO
-3	-6	1.6	CN1C(=O)c2cc(NC(=O)c3cccs3)ccc2OC[C@@H]2O[C@@H](CC(=O)O)CC[C@@H]21
2	3	-1.3	CCCC(=O)Nc1ccc2c(c1)C(=O)N(C)[C@H]1CC[C@H](CC(=O)NCCOC)O[C@@H]1CO2
-4&-10	-12&-17	1.7&1.3	C[C@@H]1CN([C@H](C)CO)S(=O)(=O)c2ccc(-c3ccc(C#N)cc3)cc2O[C@H]1CN(C)C(=O)Nc1cc(F)ccc1F
-27	-49	5.9	CS(=O)(=O)c1ccc(-c2csc(C(O)c3cccc(Cl)c3)n2)cc1 (stereo unspecified)
4	2	1.5	O=C(C[C@@H]1C=C[C@H](NC(=O)c2ccc(F)cc2)[C@H](CO)O1)NCc1ccncn1
5	10	0.5	COc1ccc(S(=O)(=O)NC(=O)C2(C)CCN2C(=O)c2c(C)noc2C)cc1 (stereo unspecified)
1	4	-4.7	Cc1noc(C)c1S(=O)(=O)Nc1ccc2c(c1)C(=O)N([C@@H](C)CO)C[C@H](C)[C@@H](CN(C)Cc1ccc(C(=O)O)cc1)O2
4	-6	-2.0	O=C(C[C@H]1C[C@@H]2c3cc(NC(=O)C4CCOCC4)ccc3O[C@@H]2[C@H](CO)O1)NCc1cccnc1
-24	-33	3.3	C[C@H](O)[C@@H]1CN2CCc3ccc(-c4ccc5c(c4)OCO5)cc3[C@@H]2C[C@@H]1N(C)C(=O)C1CCCCC1
-3	-3	3.7	CCCN1[C@@H]2c3ccc(C4=CCCC4)c(=O)n3C[C@H]1[C@H](CO)[C@H]2C(=O)NCc1ccccn1
-4	-3	0.3	COc1ccc(CN(C)C[C@@H]2Oc3ccc(NS(=O)(=O)c4ccc(F)cc4)cc3C(=O)N([C@H](C)CO)C[C@H]2C)cc1
-3	-3	-1.7	COc1ccc(NC(=O)Nc2ccc3c(c2)C(=O)N([C@@H](C)CO)C[C@H](C)[C@@H](CN(C)C(=O)C2CCCCC2)OCCCC[C@@H](C)O3)cc1
-41	-80	-17	Cc1ccc(S(=O)(=O)Nc2ccc(Cl)cc2O)cc1
-3	-5	-3.9	C[C@@H]1CN(S(=O)(=O)C(C)(C)C)[C@H](CCO)/C1=C\CCO
0	3	0.8	Cc1noc(C)c1S(=O)(=O)N(C)C[C@H]1OCc2ccccc2-c2c(n(C)c3ccccc23)C(=O)N([C@@H](C)CO)C[C@H]1C
0	2	-1.0	C[C@@H]1CN([C@@H](C)CO)C(=O)c2cc(NS(=O)(=O)c3ccccc3)ccc2O[C@@H](C)CCCCO[C@@H]1CN(C)S(=O)(=O)c1ccc(F)cc1
1	-1	2.0	COc1ccc(S(=O)(=O)Nc2cccc3c2O[C@@H](CN(C)CC2CCCCC2)[C@H](C)CN([C@H](C)CO)C3=O)cc1
-1	-1	1.2	CCC(=O)N[C@@H]1C=C[C@H](CC(=O)NCc2cc(F)cc(F)c2)O[C@@H]1CO
-2	-43	-5.9	CC(C)Oc1ccc(F)cc1-c1cc(C(=O)NC2CCCCC2)[nH]n1
-1	1	1.0	CC(C)NC(=O)Nc1ccc2c(c1)C(=O)N([C@@H](C)CO)C[C@H](C)[C@@H](CN(C)S(=O)(=O)c1cccs1)OCCCC[C@@H](C)O2
-59	-73	-7.0	N#Cc1ccc(-c2ccc([C@@H]3[C@H](CO)N4CCCCN(C(=O)Nc5ccc(F)cc5)C[C@@H]34)cc2)cc1
-1	9	-0.2	Cc1noc(C)c1NC(=O)Nc1cccc2c1O[C@H](CN(C)C(=O)NC1CCCCC1)[C@H](C)CN([C@@H](C)CO)C2=O
-2	-5	-0.4	C[C@@H]1CCCCO[C@@H](CN(C)S(=O)(=O)c2ccc(Cl)cc2)[C@@H](C)CN([C@@H](C)CO)C(=O)c2cc(NC(=O)Nc3ccccc3)ccc2O1
-4	0	1.3	N#C[C@@H]1[C@@H](c2ccccc2-c2cccc(F)c2)[C@H](CO)N1C(=O)Cc1cccnc1
0	-5	1.2	CO[C@@H]1CN(C)C(=O)c2ccc(NS(=O)(=O)CC(F)(F)F)cc2OC[C@H](C)N(C)C[C@@H]1C
-1	0	0.7	Cc1ccc(S(=O)(=O)NCC[C@H]2CC[C@@H](NC(=O)CCN3CCCCC3)[C@@H](CO)O2)cc1
-3	24	3.7	C[C@H]1CN([C@@H](C)CO)C(=O)c2cc(/C=C/c3ccccc3)cnc2O[C@H]1CN(C)C(=O)c1cnccn1
1	1	0.3	CCCC#Cc1ccc([C@H]2[C@@H](C#N)N(C(=O)C3CCC3)[C@H]2CO)cc1
1	6	-3.8	CO[C@@H]1CN(C)C(=O)c2ccc(NC(=O)C3CCCC3)cc2OC[C@H](C)N(CC2CC2)C[C@H]1C
0	-3	5.3	COC(=O)[C@]12C[C@H](CC(=O)NCc3ccc(OC)c(OC)c3)C(=O)N(CCc3ccc(OC)c(OC)c3)C1=C[C@H](C(C)(C)C)O[C@@H]2C
-7	-3	-4.1	C[C@@H]1CN([C@H](C)CO)C(=O)c2cc(NC(=O)Nc3ccc(C(F)(F)F)cc3)ccc2O[C@@H](C)CCCCO[C@H]1CN(C)C(=O)C1CCCCC1

The listing continues.
rRNA inh HTS	rRNA inh HTS OD600	rRNA inh HTS RFP	compound
-1	-4	3.9	C[C@@H]1CN([C@H](C)CO)C(=O)c2c(c3ccccc3n2C)-c2ccccc2CO[C@H]1CN(C)Cc1ccncc1
-9	-2	2.4	O=C(c1cccc(F)c1)N1CC[C@@H]2[C@H](CO)Nc3ccc(C#Cc4cccc(F)c4)cc3[C@@H]21
-17	-24	-2.1	CC1(C(=O)NCC2CCOCC2)Cc2c(-c3cccc(C(F)(F)F)c3)ccnc2O1 (stereo unspecified)
1	-8	-3.0	COc1ccc(S(=O)(=O)Nc2ccc3c(c2)C(=O)N([C@H](C)CO)C[C@@H](C)[C@@H](CN(C)C(=O)Cc2ccccc2)OCCCC[C@H](C)O3)cc1
-5	-14	-3.6	C[C@H](CO)N1C[C@H](C)[C@H](CN(C)S(=O)(=O)c2cccs2)OCCCC[C@H](C)Oc2ccc(NC(=O)Cc3ccccc3)cc2C1=O
4	11	-1.1	C[C@H]1CN([C@@H](C)CO)S(=O)(=O)c2ccc(C3=CCCC3)cc2O[C@H]1CN(C)CC1CC1
-14	0	2.5	c1ccc(COc2ncnc3c2ncn3CCCN2CCN(c3ncccn3)CC2)cc1
-1	3	-2.2	C[C@@H]1CN([C@H](C)CO)C(=O)c2cc(C#C[C@@H](C)O)cnc2O[C@@H]1CN(C)C(=O)Nc1ccc(C(F)(F)F)cc1
8	6	0.3	Cc1ccc2ccc(C(Nc3ccccc3)c3ccc(C(C)C)cc3)c(O)c2n1 (stereo unspecified)
18	20	7.4	CC(C)(C)c1ccc(CC(=O)N2CCC2(C)C(=O)NCCC#N)cc1 (stereo unspecified)
1	1	0.1	COc1ccccc1-c1ccc([C@H]2[C@@H](C#N)N(C(=O)C3CCC3)[C@H]2CO)cc1
2	6	-0.2	CNC[C@@H]1OCCCC[C@@H](C)Oc2ccc(NC(=O)Cc3ccccc3)cc2C(=O)N([C@H](C)CO)C[C@H]1C
-2	-6	-0.8	CCCNC(=O)N(C)C[C@H]1Oc2cc(-c3cccnc3)ccc2S(=O)(=O)N([C@@H](C)CO)C[C@@H]1C
3	1	0.9	COc1ccc(C=C2NC(=O)NC2=O)cc1O
1	5	0.6	CN(C)C(=O)[C@H]1[C@H](CO)[C@H]2Cn3c(cccc3=O)[C@H]2N1CCc1ccccc1
-3	-3	-2.8	CC(C)NC(=O)N(C)C[C@@H]1Oc2ccc(NC(=O)C3CC3)cc2CC(=O)N([C@H](C)CO)C[C@@H]1C
